Assay outcomes: PubChem BioAssay, ICCB-Longwood Screening Facility, Harvard Medical School
MgrA DNA FP = alters Staphylococcus aureus MgrA binding to DNA. inhibition, %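 (about 10 µg/mL by stock and volumes)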. actives 0.13% (n = 84,000). AID 602314. fluorescence polarization;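 active means above 50% in either of two replicates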;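 further: 0% = protein plus DNA without compound and 100% = DNA alone without protein; higher means less MgrA bound to DNA so lower polarization; one replicate is shown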
The depositor's hits bear a star. Only part of the results is shown; count on the stated rates, not on these rows.

SMILES | MgrA DNA FP
CC[C@H]1C(=O)OC[C@@H]1Cc1cncn1C | 3.0
